Vaccinia Venus = inhibitors of vaccinia virus (Venus reporter). Potency, µM (series often up to 36.5 µM), for inactives: at the highest dose activity change, negative = inhibition, most hits filed as inhibitors. AID 720580. actives 0.46% (n = 330,000). Vaccinia virus Venus reporter expression, fluorescence; active means well fitted inhibition curve with a large enough effect; inconclusive means small, poorly fitted or top-dose-only effect; inactive means no such curve, though single readings can be large or run the other way; tested in A549 cells; note: nearly all actives have a fitted effect of over 30% in size; inactives centre near -10
VACV mCherry inh = vaccinia inhibition (mCherry reporter); Vaccinia virus mCherry reporter infection, fluorescence; about a quarter of the inactives have no number; Potency, µM (top dose mostly 36.5 µM), inactives show top-dose activity change, negative = inhibition, hits mostly inhibitors; actives 0.63% (n = 310,000); active = well fitted inhibition curve with a large enough effect; inconclusive = small, poorly fitted or top-dose-only effect; inactive = no such curve, though single readings can be large or run the other way; tested in A549 cells; note: nearly all actives have a fitted effect of over 35% in size; inactives centre near -10
* marks the source's active call; other numbers are inactive results; i = inactive; ? = inconclusive; . = not tested or not shown; [ ] = dose if it differs, or a comment. % is set by controls: 0 for no effect and ±100 for the full control effect; potency is the fitted concentration of half-maximal effect.

SMILES	Vaccinia Venus	VACV mCherry inh
COc1cccc(CN(C)C(=O)c2ccc(NC(=O)CC3SC(N4CCCC4)=NC3=O)cc2)c1OC (stereo not given)	-12.2%	i
O=C(NCc1nc(-c2ccc(Cl)cc2)no1)c1ccc2c(c1)OCO2	1.4%	-6.0%
COc1ccc(C(C)=O)cc1Cn1c(=O)cc(C)[nH]c1=O	1.1%	-8.6%
C[C@@H]1CN([C@@H](C)CO)C(=O)c2cc(Br)cnc2O[C@H]1CN(C)C(=O)CCN1CCCCC1	-17.7%	-19.6%
COc1cccc(/C=N/n2cncn2)c1OCC#N	0.2%	-10.8%
CC(OC(=O)CN1C(=O)NC2(CCCC2)C1=O)C(=O)c1ccccc1 (stereo not given)	-3.0%	-7.7%
CC(C)[C@H](NC(=O)NC1CCCC1)C(=O)O	-13.2%	.
COc1ccccc1-n1c(SCC(=O)N2CCCC2)nnc1-c1ccccc1	-20.0%	-9.1%
CCOC(=O)N1CCN(C(=O)COc2cccc3c2CCN(CC)C3=O)CC1	-15.1%	i
CC(C)(CO)NCc1c(OCc2ccc(Cl)cc2)ccc2ccccc12	?	?
COc1ccc(-c2noc(CN(C(=O)c3ccc4c(c3)OCO4)C(C)C)n2)cc1	-4.7%	-7.2%
O=C(CNC(=O)C1COc2ccccc2O1)N/N=C\c1ccccc1Cl (stereo not given)	-6.6%	i
Cc1cccc(NC(=O)CS(=O)(=O)Cc2ccccc2)n1	-6.6%	-16.6%
O=C(NCCCO)c1ccc2[nH]c3ccccc3c2c1	-20.0%	.
O=C(COc1ccccc1Cl)NNC(=O)c1cc(S(=O)(=O)N2CCOCC2)ccc1N1CCCC1	0.0%	-6.4%
CS(=O)(=O)c1ccc(Nc2nc(C(N)CCc3ccccc3)cs2)cc1 (stereo not given)	-21.0%	3.2%
CSc1ccccc1NS(=O)(=O)c1ccc2c(c1)OCCO2	-0.3%	i
Cc1ccc(/C=N/NC(=O)c2nnn(-c3nonc3N)c2C)o1	-5.2%	-11.6%
CCOc1ccccc1N(C)C(=O)C1CCCN(c2ncnc3c2nc2n3CCCCC2)C1 (stereo not given)	-1.3%	-14.9%
Cn1c(SCC(=O)NNC(=O)Cc2ccccc2)nnc1-c1ccccc1	-7.6%	-11.8%
Cc1[nH]c(=O)[nH]c(=O)c1S(=O)(=O)N1CCC(C(=O)N2CCN(c3cccc(C(F)(F)F)c3)CC2)CC1	-13.3%	i
COC(=O)C1=C(c2cccc(OCc3ccccc3)c2)C[C@@H]2CC[C@H]1N2C(=O)NCc1cccc(F)c1	?	?
O=C(Nc1ccc2c(c1)OCCO2)C(c1ccnc2ccccc12)N1CCN(C/C=C/c2ccccc2)CC1 (stereo not given)	-5.8%	-16.8%
CC(=O)Nc1nc(C(F)(F)F)cs1	0.7%	-0.2%
CCc1ccc(/C=N/NC(=O)c2nnn(-c3nonc3N)c2CN2CCc3ccccc32)cc1	-18.5%	-24.6%
Cc1ccc2c(c1)N(CC(=O)N1CCCCC1c1cccnc1)C(=O)CO2 (stereo not given)	-4.3%	i
Cc1cc(C(=O)COC(=O)CN=C2NS(=O)(=O)c3ccccc32)c(C)n1CCc1ccc(Cl)cc1	-3.8%	-12.9%
Nc1cc(N)nc(SCC(=O)NCCC2=CCCCC2)n1	-5.6%	-13.4%
Fc1ccc(-n2nnc(-c3cccnc3)n2)cc1	-6.8%	i
CCN1C(=O)/C(=C/c2ccc(OC)c(OC)c2)N=C1SCC(=O)NCc1ccco1	-8.4%	-7.7%
COCc1ccc(C(=O)N2CCCC(N(C)CCc3ccc(OC)c(OC)c3)C2)s1 (stereo not given)	-4.2%	-8.6%
O=C(c1ccc(C(F)(F)F)cc1)C1CCCN(C(=O)CCN2CCCO2)C1 (stereo not given)	-8.9%	-1.6%
COc1ccc(CNc2ncccc2[N+](=O)[O-])cc1	21.5%	-10.5%
O=S(=O)(c1cccc(NC(=S)N2CCN(c3ccccc3)CC2)c1)C(F)F	-12.6%	-11.5%
C/C(=N\Nc1nncc2ccccc12)c1ccc(Cl)c([N+](=O)[O-])c1	6.0%	-10.8%
Cc1ccc(-n2sc3cc(F)ccc3c2=O)c(C)c1	?	-12.7%
NC(=O)c1ccc(OCc2ccccc2)nc1	-9.2%	-7.5%
CCCCCCC(=O)N/N=C1\CCCc2ccccc21	-6.2%	-17.6%
CC(=O)c1cccc(NC(=O)Nc2nnc(N3CCCC3)s2)c1	-9.0%	-2.4%
CC(C)(C)OC(=O)C[C@@H]1C/C=C\C[C@H](CC(=O)NCCO)C(=O)NC[C@H](c2ccccc2)OC1=O	-7.2%	i
O=C(c1ccccc1NS(=O)(=O)c1ccc(Br)s1)N1CCCC1	-25.1%	.
COc1ccc(N2CCN(C(=O)c3ccccc3Br)CC2)c([N+](=O)[O-])c1	0.1%	?
CCOc1ccccc1/C=C(\C#N)C(=O)Nc1cccc(C(=O)O)c1	-2.3%	5.5%
O=C(Nc1nnc(-c2ccccc2)o1)c1cc(Cl)sc1Cl	-9.8%	-13.5%
Cc1ccc(C)c(S(=O)(=O)N2CCN(c3ncccn3)CC2)c1	?	?
NS(=O)(=O)c1cccc(NC(=O)CN2C(=O)C(=O)N(Cc3ccccc3)C2=O)c1	-7.5%	-1.7%
COc1cccc(Nc2cc(-c3ccccc3)nc(C)n2)c1	-15.1%	-9.6%
CCCc1nnc(NC(=O)COc2ccc3c(c2)OCO3)s1	1.8%	-9.0%
CCCNc1c(N)c(=O)oc2ccccc12	-6.5%	-14.4%
O=C(N/N=C/C=C/c1ccco1)c1cccs1	-11.2%	-11.6%
Continuation:
SMILES	Vaccinia Venus	VACV mCherry inh
CCOC(=O)c1ccc2c(c1)N(Cc1ccccc1)C(=O)c1ccccc1S2	-19.1%	-14.7%
COC(=O)c1c(NC(=O)C2CC2)sc2c1CCCC2	-4.3%	-23.7%
N#Cc1cc(Br)ccc1N=C1CCCN1c1ccccc1	-8.5%	-11.1%
N#C/C(C(=O)NCc1ccccc1)=C1/N=C(NC(=O)c2cccs2)c2ccccc21	-4.6%	-3.1%
COc1cccc(-c2ccc(SCC(=O)c3ccccc3)nn2)c1	-7.2%	-12.7%
Cc1ccc(C)c(NC(=O)COC(=O)CCC(=O)c2cccs2)c1	-8.3%	-4.6%
CCOC(=O)Cc1csc(NC(=O)CCCC(=O)O)n1	-3.8%	-12.7%
COc1cc2c(=O)n(Cc3ccco3)c(=O)n(CC(=O)c3ccc(Br)cc3)c2cc1OC	11.9%	.
COC(=O)C1CC(=O)N(c2ccc(OCc3ccccc3Cl)cc2)C1 (stereo not given)	-2.5%	-6.9%
COc1cc(N2C(=O)c3ccccc3C2=O)c(Cl)cc1C(=O)OCC(=O)N(C)C	-2.6%	-11.7%
O=Cc1cn(-c2ccccc2)nc1-c1ccc2c(c1)OCCO2	?	?
Cc1cc(O)c2/c(=N\N)c(-c3csc(C)n3)coc2c1	11.9%	-10.7%
CCOc1ccc(C(=S)N2CCCC2)cc1	-16.4%	-19.3%
COc1ccc(Nc2cc(C(=O)NCCCN3CCOCC3)c3ccccc3n2)c(OC)c1	-8.3%	-14.6%
CC1(C)Cc2c(c(N3CCOCC3)nc3snc(NC(=O)c4ccccc4)c23)CO1	-0.5%	-7.3%
Cc1cc(C)n(-c2ccc(C(=O)Nc3ccc(C)c(S(=O)(=O)N4CCOCC4)c3)cc2)n1	-24.4%	?
CCOc1ccc(NC(=O)Cn2cc(C(=O)c3ccc(F)cc3)c(=O)c3cc4c(cc32)OCO4)cc1	-26.5%	-18.7%
CS(=O)(=O)Nc1cccc(-c2cc(NC=O)c3ncc(-c4ccc(F)cc4)n3c2)c1	?	?
COc1ccccc1NC(=O)C1CCCN1S(=O)(=O)c1ccc(Cl)cc1 (stereo not given)	-13.3%	-2.1%
CC(C)c1ccc(C(=O)NNC(=O)C2CC=CCC2C(=O)O)cc1 (stereo not given)	-7.9%	i
O=C(Nc1ccccn1)C(F)(F)C(F)(F)C(F)(F)C(F)(F)C(=O)Nc1ccccn1	-12.0%	-17.9%
Cc1ccc(S(=O)(=O)NNC(=O)CC#N)cc1	-7.6%	i
COc1ccc(-c2[nH]ncc2CN(C)CCc2c(C)n[nH]c2C)c(F)c1	-8.8%	-4.3%
O=C(NCc1cccs1)c1cccc2c(-c3cccnc3)coc12	-10.3%	i
Nc1ccc2c(c1)CC(=O)c1ccccc1S2	-11.6%	i
NS(=O)(=O)c1cccc(NC(=O)COC(=O)Cc2ccc(S(=O)(=O)N3CCOCC3)s2)c1	-2.3%	-14.7%
CCC(C)NC(=O)c1ccc(N2CC3CC(C2)c2cccc(=O)n2C3)c(NC(=O)c2c(F)cccc2F)c1 (stereo not given)	-8.6%	-8.7%
c1cc2nncn2nc1N1CCCC1	-10.6%	-20.4%
O=C(O)c1cc(NCc2ccc(F)cc2)ccc1N1CCOCC1	15.2%	.
CC(C)CCNC(=O)Cn1c(SCc2cccc(F)c2)nc2ccncc21	-16.7%	i
CC(C)NC(=O)Nc1cccc2c1O[C@H](CN(C)S(=O)(=O)c1ccccc1)[C@@H](C)CN([C@H](C)CO)C2=O	-12.3%	-12.2%
O=C(COC(=O)CCSc1ccc(F)cc1)NCc1ccc(F)cc1	-10.3%	-3.8%
CCCN(C(=S)Nc1ccccc1)C1CCS(=O)(=O)C1 (stereo not given)	-3.2%	-2.2%
Cc1cccc(CSc2nc3c(sc4ccccc43)c(=O)n2CCC(=O)NC(C)C)c1	-3.4%	-11.6%
COc1ccc(C)cc1NC(=O)C1CC(=O)N(CCc2ccc(F)cc2)C1 (stereo not given)	-2.9%	i
O=C(COc1ccccc1)Nc1cccc(-c2nnc(-c3ccccc3)o2)c1	-7.4%	-23.0%
COc1ccc(OC)c(NC(=S)NN2CCN(C)CC2)c1	-12.7%	i
CCC(=O)c1cn([C@H](CCC(OC)OC)CC(=O)OC(C)(C)C)cc1CC	-5.1%	-17.3%
CCC(c1nnnn1-c1ccc(OC)cc1)N1CCN(C/C=C/c2ccccc2)CC1 (stereo not given)	-3.0%	0.2%
Cc1cccc(NC(=O)C2CCCN2C(=O)Oc2ccccc2)c1 (stereo not given)	-6.7%	-6.0%

Exported with each value named: part of the list above
O=C(COC(=O)CCSc1ccc(F)cc1)NCc1ccc(F)cc1
  Vaccinia Venus: -10.3%
  VACV mCherry inh: -3.8%
CCCN(C(=S)Nc1ccccc1)C1CCS(=O)(=O)C1 (stereo not given)
  Vaccinia Venus: -3.2%
  VACV mCherry inh: -2.2%
Cc1cccc(CSc2nc3c(sc4ccccc43)c(=O)n2CCC(=O)NC(C)C)c1
  Vaccinia Venus: -3.4%
  VACV mCherry inh: -11.6%
COc1ccc(C)cc1NC(=O)C1CC(=O)N(CCc2ccc(F)cc2)C1 (stereo not given)
  Vaccinia Venus: -2.9%
  VACV mCherry inh: i

(list continues)
SMILES	Vaccinia Venus	VACV mCherry inh
OC(c1ccccc1)c1nc2ccccc2n1Cc1c(F)cccc1Cl (stereo not given)	-6.2%	-12.4%
COc1cccc(-c2cnc3c(NC=O)cc(-c4cccc(NC(C)=O)c4)cn23)c1	?	-24.2%
C1=CC(c2cc3ccccc3o2)OC(CCc2ccccc2)C1 (stereo not given)	-3.9%	-23.5%
CC1CC(C(F)(F)F)n2ncc(C(=O)O)c2N1 (stereo not given)	-25.5%	.
NC(=O)CS(=O)(=O)c1ccc(Cl)cc1	-1.9%	-28.9%
CCOC1OC2C(CO)OC(n3cnc4c(N)ncnc43)C2O1 (stereo not given)	-6.7%	i
O=C(OCC(=O)N1CCN(S(=O)(=O)c2ccc(Cl)cc2)CC1)c1cc(Br)ccc1O	-16.5%	-19.8%
O=C(COc1ccc(Cl)cc1Cl)NN1C(=O)/C(=C\c2ccc(Cl)cc2)SC1=S	-1.7%	0.3%
COc1ccc2[nH]c3c(c2c1)CCN1C(=O)C(CC(=O)NCCCN(C)C)C[C@H](C(=O)N2CCCCC2)[C@@]31CCc1ccccc1 (stereo not given in full)	-16.3%	-13.2%
Cn1/c(=N/NC(=O)c2cccc(OC(F)F)c2)sc2ccccc21	11.4%	i
Cc1ccc(SCc2nc(-c3ccccc3)no2)cc1	-6.9%	.
COc1ccc(NC(=O)CN(C)C(=O)c2cn(-c3ccccc3)nc2-c2cccs2)cc1	-9.5%	i
CC1(C(=O)NCc2ccccc2)CSCC(=O)N1CCc1c[nH]c2ccccc12 (stereo not given)	-10.1%	?
COc1ccc2nc(SCc3ccccc3)nc(C)c2c1	-6.8%	-18.6%
Cc1cnc(C(=O)OCC(=O)c2ccc(F)c(F)c2)cn1	-1.9%	i
O=C(Nc1cccc(C(F)(F)F)c1)c1scc2c1OCCO2	2.6%	-10.7%
C[C@@H]1CN([C@@H](C)CO)S(=O)(=O)c2ccc(Br)cc2O[C@H]1CN(C)C(=O)Cc1cccnc1	-5.5%	i
CN1CCN(c2ccc(S(=O)(=O)N3CCCCC3)cc2NC(=O)/C=C/c2ccc(Cl)c([N+](=O)[O-])c2)CC1	-27.0%	-10.0%
OC(Cc1ccc2ccccc2n1)c1c(Cl)cccc1Cl (stereo not given)	1.1%	7.7%
Cc1ccc(-c2nc3ccccc3o2)cc1NC(=S)NC(=O)c1cccs1	-12.6%	.
Cc1ccc2oc(=O)c(S(=O)(=O)c3ccc(F)cc3)cc2c1	0.6%	-7.1%
O=C(CCc1ccccc1)N1Cc2cc(N3CCCCC3)ccc2-n2nncc2C1	-2.0%	1.4%
CC(NC(=O)c1ccc(F)cc1)c1nc2ccccc2[nH]1 (stereo not given)	-0.4%	-1.1%
O=C(NC(=S)NCc1ccccc1)c1ccc(Br)cc1	-4.5%[7.34 µM]	-7.8%[7.34 µM]
